Source: PubChem
RGS16-Gao HTS: modulators of RGS16 binding to Galphao, primary screen, biochemical, human proteins, multiplexed bead flow cytometry | Regulator of G-protein signaling 16 (Homo sapiens) + Guanine nucleotide-binding protein … | bead-based flow cytometry RGS16-Galphao binding, fluorescence; actives lie on both sides | binding response (% of control), % at 10 µM | 220,000 tested, 0.38% active;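 active = below 25% or above 175%, edge rows of some plates excepted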;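 note: Galphao activated by GDP with aluminum fluoride before binding; 100% = wells without compound and 0% = beads without RGS; some results beyond the cut were filed as inactive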
Target sequence (O15492 whole entry, looked up): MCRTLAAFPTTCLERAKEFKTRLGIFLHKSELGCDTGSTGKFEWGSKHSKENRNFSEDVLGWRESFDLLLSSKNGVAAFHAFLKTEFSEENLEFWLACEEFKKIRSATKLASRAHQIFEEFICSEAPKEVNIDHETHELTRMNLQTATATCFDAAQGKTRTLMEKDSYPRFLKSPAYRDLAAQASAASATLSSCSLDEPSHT
Target sequence (P09471 whole entry, looked up): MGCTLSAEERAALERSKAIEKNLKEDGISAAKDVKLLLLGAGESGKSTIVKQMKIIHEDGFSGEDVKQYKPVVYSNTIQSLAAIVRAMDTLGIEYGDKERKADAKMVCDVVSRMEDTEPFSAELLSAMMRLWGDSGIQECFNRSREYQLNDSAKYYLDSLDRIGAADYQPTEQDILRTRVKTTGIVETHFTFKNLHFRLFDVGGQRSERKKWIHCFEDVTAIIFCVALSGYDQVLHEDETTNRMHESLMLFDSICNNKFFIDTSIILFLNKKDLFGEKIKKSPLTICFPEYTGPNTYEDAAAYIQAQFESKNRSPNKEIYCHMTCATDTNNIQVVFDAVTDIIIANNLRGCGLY
GALR2 ag: GALR2 receptor agonists, primary screen, cell-based. Galanin receptor type 2 (Homo sapiens), O43603. GALR2-expressing cells, agonist activation read-out. activation, %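 (tested at 5 µM)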. 140,000 tested, 0.48% active;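 active = above mean plus 3 SD of all compounds, about 5% in these data, not always enough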;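 note: 0% = vehicle buffer wells and 100% = reference agonist at full effect; tested in CHO reporter cells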
Target sequence (O43603 whole entry, looked up): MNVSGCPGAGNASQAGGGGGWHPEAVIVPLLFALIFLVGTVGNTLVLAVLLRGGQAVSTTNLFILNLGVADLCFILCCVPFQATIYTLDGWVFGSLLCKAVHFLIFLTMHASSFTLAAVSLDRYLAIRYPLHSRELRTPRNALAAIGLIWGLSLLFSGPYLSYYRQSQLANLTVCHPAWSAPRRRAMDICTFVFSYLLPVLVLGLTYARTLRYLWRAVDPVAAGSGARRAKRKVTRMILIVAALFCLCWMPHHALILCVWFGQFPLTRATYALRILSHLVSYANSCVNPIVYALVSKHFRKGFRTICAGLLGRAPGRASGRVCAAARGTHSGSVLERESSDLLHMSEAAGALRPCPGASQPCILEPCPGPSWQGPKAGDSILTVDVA
INS promoter inh: inhibitors of insulin promoter-driven GFP, primary screen, imaging, TRM-6 cells (human fetal islet line), eGFP reporter, cell count; reporter expression induced with tamoxifen; inhibition, % at 2 µM; 130,000 tested, 0.9% active; AID 1273, 2008;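 active = inhibition above the mean plus 3 SD, with well images judged a real hit on visual review, cut at about 60% in these data, passing the limit was not always enough; inconclusive = inhibition over the cutoff but images rejected on review; inactive = inhibition not above the cutoff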
HSV replic up: enhancers of HSV replication in host cells, fold increase, host cell viability; HSV replication augmentation in cells; maximum fold increase; 220,000 tested, 0.005% active;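 active = peak rise of 1.5-fold or more in the series; inconclusive = self-fluorescent or not available for retest; tested in PC3 cells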;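 note: first round at 10 µM; read as green reporter fluorescence; hits show the peak of a series up to 25 µM; 1 = signal of infected wells without compound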
PKD1 kinase inh: inhibitors of human PKD1 kinase, biochemical, fluorescence polarization. PKD1 kinase fluorescence polarization assay. Serine/threonine-protein kinase D1 (Homo sapiens), Q15139. 200,000 tested, 0.056% active. inhibition, %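 (about 10 µM by stock and volumes)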. AID 797, 2007;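 active = inhibition of 50% or more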;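 note: controls were vehicle for no effect and a reference inhibitor for full effect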
INS promoter inh cell count: recorded beside INS promoter inh, whose call it bears; normalized cell count, %; measured here: cell count, toxicity; reference of the scale not given here;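 cells exposed to compound for 48 h; stained nuclei by imaging scaled within each plate; lower means fewer cells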
HSV replic up primary fold: second read-out of HSV replic up, no call of its own (marks repeat the call); fold increase; compound at 10 µM; measured here: primary screen fold increase 10 uM; tested in PC3 cells;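 GFP signal in the first replicate; 1 = infected wells without compound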
An asterisk follows results filed as active.

`CCCCCCCCNC(=S)NCCN1CCCCC1` gave RGS16-Gao HTS 105.9, INS promoter inh -58.3, HSV replic up inactive, PKD1 kinase inh 4.7, INS promoter inh cell count 102.4 and HSV replic up primary fold 0.7.
Screening O=C(C1CCC1)N(CCc1ccccc1)Cc1nc2ccccc2c(=O)[nH]1 returned RGS16-Gao HTS 94.6, GALR2 ag -1.4, HSV replic up inactive, PKD1 kinase inh 2.5 and HSV replic up primary fold 0.86.
`CN(C1CCCCC1)S(=O)(=O)c1ccc(S(=O)(=O)N2CCCC2)cc1` gave RGS16-Gao HTS 90.3, GALR2 ag -0.9, INS promoter inh -15.8, HSV replic up inactive, PKD1 kinase inh -4.5, INS promoter inh cell count 123.4 and HSV replic up primary fold 0.94.
Screening CC(=O)c1ccc(NC(=O)CSc2ccc3nnc(-c4cccnc4)n3n2)cc1 returned RGS16-Gao HTS 106.6, INS promoter inh -72.7, HSV replic up inactive, PKD1 kinase inh 4.3, INS promoter inh cell count 135.5 and HSV replic up primary fold 0.89.
`N#Cc1c(N)nc2c(c1-c1ccc3c(c1)OCO3)CCc1ccccc1-2` gave RGS16-Gao HTS 107.7, GALR2 ag 4.9*, HSV replic up inactive, PKD1 kinase inh -3.0 and HSV replic up primary fold 0.9.
CCOc1ccc2c(c1)sc1nc(C(=O)OC)cc(=O)n12 was read as GALR2 ag -1.6, INS promoter inh -45.0, HSV replic up inactive, PKD1 kinase inh -5.1, INS promoter inh cell count 108.7 and HSV replic up primary fold 0.8.
`CC(C)(C)c1ccc(C(=O)Nc2ccc(Oc3cccnc3)nc2)cc1` gave RGS16-Gao HTS 102.1, HSV replic up inactive and HSV replic up primary fold 0.82.
Screening CNC(=O)c1ccc(Nc2nnc(-c3ccc(C)c(S(=O)(=O)NCC4CCCO4)c3)c3ccccc23)cc1 (centres undefined) returned RGS16-Gao HTS 99.9, GALR2 ag -0.2, HSV replic up inactive, PKD1 kinase inh 5.3 and HSV replic up primary fold 1.01.
For NC(=O)COc1ccccc1C(=O)O the results were RGS16-Gao HTS 108.1, INS promoter inh 50.0, HSV replic up inactive, PKD1 kinase inh 15.0, INS promoter inh cell count 175.9 and HSV replic up primary fold 0.9.
Screening O=C(Cc1c(F)cccc1Cl)NCC1CCCO1 (centres undefined) returned RGS16-Gao HTS 97.5, GALR2 ag -0.9, INS promoter inh 14.3, HSV replic up inactive, PKD1 kinase inh -1.1, INS promoter inh cell count 125.4 and HSV replic up primary fold 0.93.
NC1=C(c2ccc([N+](=O)[O-])cc2)C(=O)CO1 was read as RGS16-Gao HTS 100.1, GALR2 ag -1.5, INS promoter inh -45.1, HSV replic up inactive, PKD1 kinase inh 0.6, INS promoter inh cell count 109.5 and HSV replic up primary fold 0.87.
Screening CN1CCN(C(=O)c2cc3c(ccc4ccccc43)oc2=O)CC1 returned RGS16-Gao HTS 99.4, GALR2 ag -2.6, HSV replic up inactive, PKD1 kinase inh 1.1 and HSV replic up primary fold 0.84.
For O=C(Nc1ccccc1N1CCCCC1)c1ccc(F)cc1 the results were RGS16-Gao HTS 98.7, GALR2 ag 0.2, INS promoter inh 34.5, HSV replic up inactive, PKD1 kinase inh -6.3, INS promoter inh cell count 57.3 and HSV replic up primary fold 1.1.
For CCOC(=O)C1ON2CCCCC2C1(O)C(F)(F)F (centres undefined) the results were RGS16-Gao HTS 102.2, HSV replic up inactive, PKD1 kinase inh -7.1 and HSV replic up primary fold 0.9.
`COc1ccccc1NC(=O)COC(=O)Cc1c[nH]c2ccccc12` gave RGS16-Gao HTS 102.2, HSV replic up inactive, PKD1 kinase inh 3.3 and HSV replic up primary fold 1.08.

Next section, starting with the last two of the part before.
For CCOC(=O)C1ON2CCCCC2C1(O)C(F)(F)F (centres undefined) the results were RGS16-Gao HTS 102.2, HSV replic up inactive, PKD1 kinase inh -7.1 and HSV replic up primary fold 0.9.
`COc1ccccc1NC(=O)COC(=O)Cc1c[nH]c2ccccc12` gave RGS16-Gao HTS 102.2, HSV replic up inactive, PKD1 kinase inh 3.3 and HSV replic up primary fold 1.08.
For CC(C)C(=O)Nc1nnn(C)n1 the results were RGS16-Gao HTS 108.0, GALR2 ag -1.0, INS promoter inh 14.3, HSV replic up inactive, PKD1 kinase inh -4.8, INS promoter inh cell count 114.8 and HSV replic up primary fold 0.79.
Screening COc1cc(-c2nc3cnccn3c2Nc2c(C)cccc2C)ccc1O returned RGS16-Gao HTS 101.4, GALR2 ag 2.3, INS promoter inh -21.4, HSV replic up inactive, PKD1 kinase inh -2.8, INS promoter inh cell count 108.7 and HSV replic up primary fold 0.8.
Screening c1ccc(Cn2nnnc2C(c2cccs2)N2CCCCCC2)cc1 (centres undefined) returned RGS16-Gao HTS 107.3, GALR2 ag -1.6, INS promoter inh -8.3, HSV replic up inactive, PKD1 kinase inh -11.2, INS promoter inh cell count 105.9 and HSV replic up primary fold 0.98.
`Cc1onc(-c2ccccc2)c1C(=O)NCc1ccco1` gave RGS16-Gao HTS 101.5, GALR2 ag -0.2, INS promoter inh -21.4, HSV replic up inactive, PKD1 kinase inh -3.5, INS promoter inh cell count 50.8 and HSV replic up primary fold 1.06.
Screening COCCn1c(SCC#N)nnc1-c1ccc([N+](=O)[O-])cc1 returned RGS16-Gao HTS 103.0, HSV replic up inactive, PKD1 kinase inh 4.3 and HSV replic up primary fold 0.97.
`Cc1ccccc1-n1c(Cn2c(=O)sc3ccccc32)nnc1SCC(=O)Nc1nccs1` gave RGS16-Gao HTS 106.8, GALR2 ag -1.0, HSV replic up inactive, PKD1 kinase inh 2.6 and HSV replic up primary fold 1.39.
For Cc1cccc(NC(=O)c2cc(S(=O)(=O)c3ccccc3)ccc2Cl)c1 the results were RGS16-Gao HTS 106.3, GALR2 ag -0.9, INS promoter inh 24.3, HSV replic up inactive, PKD1 kinase inh -3.3, INS promoter inh cell count 137.0 and HSV replic up primary fold 1.02.
Screening CN1C(=O)CC(NNC(=O)c2ccc(Cl)cc2)C1=O (centres undefined) returned RGS16-Gao HTS 106.1, GALR2 ag -0.9, INS promoter inh 5.6, HSV replic up inactive, PKD1 kinase inh -2.2, INS promoter inh cell count 132.3 and HSV replic up primary fold 0.94.
`Cc1oc(C(C)(C)C)cc1C(=O)Nc1ccc(N2CCOCC2)cc1` gave RGS16-Gao HTS 78.6, HSV replic up inactive and HSV replic up primary fold 0.9.
COc1ccc(CCCC(=O)N/N=C\c2cccs2)cc1 was read as RGS16-Gao HTS 102.5, INS promoter inh 21.4, HSV replic up inactive, PKD1 kinase inh 9.3, INS promoter inh cell count 119.9 and HSV replic up primary fold 0.97.
Screening CC(=O)c1cccc(S(=O)(=O)NCC2CCCCC2)c1 returned RGS16-Gao HTS 109.4, GALR2 ag -0.3, INS promoter inh 10.7, HSV replic up inactive, PKD1 kinase inh -8.9, INS promoter inh cell count 94.6 and HSV replic up primary fold 1.05.
`O=C(CNS(=O)(=O)c1ccc(Br)cc1)OCc1cc(=O)n2cc(Br)ccc2n1` gave RGS16-Gao HTS 84.4, GALR2 ag -1.2, HSV replic up inactive, PKD1 kinase inh -2.2 and HSV replic up primary fold 0.91.
For c1ccc2c(Nc3nc4c(s3)CCCC4)cccc2c1 the results were RGS16-Gao HTS 111.1, GALR2 ag -1.5, INS promoter inh 20.6, HSV replic up inactive, PKD1 kinase inh -1.0, INS promoter inh cell count 103.9 and HSV replic up primary fold 0.89.
Screening CCOC(=O)C1CCCN(c2c(NCCCN3CCCC(C)C3)c(=O)c2=O)C1 (centres undefined) returned RGS16-Gao HTS 108.7, GALR2 ag -1.9, HSV replic up inactive, PKD1 kinase inh 1.8 and HSV replic up primary fold 0.81.
Cc1ccc(NC(=S)N(CCN2CCCCC2)Cc2ccco2)cc1C was read as RGS16-Gao HTS 102.0, HSV replic up inactive, PKD1 kinase inh 2.3 and HSV replic up primary fold 0.72.
Fc1cccc(-c2cc3nc4c(c(N5CCOCC5)n3n2)CCCC4)c1 was read as RGS16-Gao HTS 96.1, GALR2 ag -0.5, INS promoter inh 8.8, HSV replic up inactive, PKD1 kinase inh -0.5, INS promoter inh cell count 97.5 and HSV replic up primary fold 0.95.
CC(=O)c1ccc(Oc2cc(C(F)(F)F)cnc2C(N)=O)cc1 was read as RGS16-Gao HTS 107.7, INS promoter inh 9.1, HSV replic up inactive, PKD1 kinase inh -3.0, INS promoter inh cell count 183.2 and HSV replic up primary fold 1.05.
For CC(C)C1=C2CCCCC2NC(=O)N1 (centres undefined) the results were RGS16-Gao HTS 100.3, GALR2 ag -1.4, HSV replic up inactive, PKD1 kinase inh -3.5 and HSV replic up primary fold 0.91.
CN1CCN(NC(=S)Nc2ccccc2)CC1 was read as RGS16-Gao HTS 106.9, INS promoter inh -21.4, HSV replic up inactive, PKD1 kinase inh -3.7, INS promoter inh cell count 84.3 and HSV replic up primary fold 1.09.
CCOc1ccc(-c2nc(CCl)cs2)cc1 was read as RGS16-Gao HTS 106.2, HSV replic up inactive, PKD1 kinase inh -1.6 and HSV replic up primary fold 0.99.
Screening CC(C)Oc1ccc(C2NC(=O)NC2=O)cc1 (centres undefined) returned RGS16-Gao HTS 104.2, GALR2 ag 1.1, HSV replic up inactive, PKD1 kinase inh -3.0 and HSV replic up primary fold 1.1.
COc1ccc2c(c1)CC[C@@H]1[C@@H]2CC[C@]2(C)C(=O)CC[C@@H]12 was read as RGS16-Gao HTS 101.1, GALR2 ag -1.5, INS promoter inh -57.1, HSV replic up inactive, PKD1 kinase inh -6.7, INS promoter inh cell count 145.7 and HSV replic up primary fold 0.8.
For CC1=C(C(=O)OC(C)C)C(C)C(C(=O)OC(C)C)=C(C)N1 the results were RGS16-Gao HTS 130.9, GALR2 ag -0.5, HSV replic up inactive, PKD1 kinase inh -3.4 and HSV replic up primary fold 1.13.
Cc1ccc(S(=O)(=O)N2CCOCC2)cc1NC(=O)COC(=O)CNC(=O)c1ccccc1 was read as RGS16-Gao HTS 103.3, GALR2 ag -0.9, INS promoter inh 0.0, HSV replic up inactive, PKD1 kinase inh -8.6, INS promoter inh cell count 132.0 and HSV replic up primary fold 1.
CCOC(=O)N1CCN(C(=O)COc2cccc3c2CCN(Cc2ccc(F)cc2)C3=O)CC1 was read as RGS16-Gao HTS 97.5, GALR2 ag -1.6 and PKD1 kinase inh -4.7.
COc1cc(/C=N/NC(=O)CN2CCOCC2)ccc1OCc1ccccc1 was read as RGS16-Gao HTS 105.5, GALR2 ag -0.5, INS promoter inh -56.2, HSV replic up inactive, PKD1 kinase inh -12.5, INS promoter inh cell count 66.4 and HSV replic up primary fold 0.83.
Screening CN(C(=O)CN1CCC(NC(=O)C2CCCCC2)CC1)C1CCCCC1 returned RGS16-Gao HTS 103.8, GALR2 ag -2.3, INS promoter inh 10.0, HSV replic up inactive, PKD1 kinase inh -1.8, INS promoter inh cell count 135.4 and HSV replic up primary fold 0.84.
Cc1ccsc1C(=O)OCc1nc2ccccc2c(=O)[nH]1 was read as RGS16-Gao HTS 103.0, GALR2 ag 0.2, INS promoter inh 22.6, HSV replic up inactive, PKD1 kinase inh -1.3, INS promoter inh cell count 83.0 and HSV replic up primary fold 1.11.
Screening COc1ccccc1NC(=O)CN1CCC(n2c(C)nc3cc(F)ccc32)CC1 returned RGS16-Gao HTS 108.0, GALR2 ag 4.1, HSV replic up inactive, PKD1 kinase inh -12.4 and HSV replic up primary fold 0.7.
`COc1ccccc1NC(=O)CC1C(=O)NCCN1C(=O)Nc1ccc(Cl)c(Cl)c1` (centres undefined) gave RGS16-Gao HTS 96.2, GALR2 ag 1.5, INS promoter inh -5.6, HSV replic up inactive, PKD1 kinase inh -4.6, INS promoter inh cell count 109.0 and HSV replic up primary fold 0.79.
`O=C(NNC1=Nc2cccc3cccc1c23)c1ccc(Br)cc1` gave RGS16-Gao HTS 102.4, INS promoter inh -48.6, HSV replic up inconclusive, PKD1 kinase inh 50.1* and INS promoter inh cell count 156.8.
Screening COc1cc(NC(=S)NCc2ccco2)cc(OC)c1 returned RGS16-Gao HTS 95.1, GALR2 ag -1.9, INS promoter inh 0.0, HSV replic up inactive, PKD1 kinase inh 1.3, INS promoter inh cell count 65.5 and HSV replic up primary fold 1.08.
`COC(=O)CCC(=O)Nc1cccc(Cl)c1` gave RGS16-Gao HTS 99.2, GALR2 ag -0.8, INS promoter inh 0.0, HSV replic up inactive, PKD1 kinase inh -6.1, INS promoter inh cell count 85.5 and HSV replic up primary fold 0.97.
